# Cruzain Triton – qHTS Assay for Promiscuous and Specific Inhibitors of Cruzain (with detergent) | Cruzipain (Trypanosoma cruzi), P25779 | purified cruzain, Z-FR-AMC fluorescence, 0.01% Triton | Potency, µM, for inactives: max response, negative = inhibition, actives largely listed as inhibitors | AID 1478, 2009 | 200,000 compounds, 0.43% hits;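 note: plate controls were neutral wells for no effect and buffer without enzyme for full effect; nearly all actives have a fitted effect of over 40% in size; top concentration of the series not given in the record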
# Target sequence (P25779 123-467 limits assumed): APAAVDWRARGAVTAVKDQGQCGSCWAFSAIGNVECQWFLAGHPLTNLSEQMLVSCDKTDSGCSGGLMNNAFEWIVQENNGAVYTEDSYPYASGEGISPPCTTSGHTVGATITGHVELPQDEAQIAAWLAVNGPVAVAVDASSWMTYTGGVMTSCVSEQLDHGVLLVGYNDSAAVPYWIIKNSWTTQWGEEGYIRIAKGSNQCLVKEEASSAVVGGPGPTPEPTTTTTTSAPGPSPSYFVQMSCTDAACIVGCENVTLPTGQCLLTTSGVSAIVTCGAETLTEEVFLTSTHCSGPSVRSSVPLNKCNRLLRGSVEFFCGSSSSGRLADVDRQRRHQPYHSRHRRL
#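 Compounds were screened in titration against cruzain (1.5 nM) with 0.01% Triton X-100 to counter colloidal aggregation. Activity was the AMC fluorescence increase over 60 s after adding 2 uM Z-FR-AMC at pH 5.5.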
# NS1 inh – qHTS Assay for Inhibitors of Influenza NS1 Protein Function. S. cerevisiae slowed by influenza A NS1, growth recovery by OD600. Potency, µM (doses to about 46.1 µM), for inactives: at the top dose activity, positive = more growth. 270,000 compounds, 0.4% hits. AID 2326, 2010; active means well fitted rising curve with a large enough effect; inconclusive means small, poorly fitted or top-dose-only effect; inactive means no such curve, though single readings can be large or run the other way; note: nearly all actives have a fitted effect of over 50% in size
#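 Recovery from NS1-induced slow growth read by OD600 in budding yeast switched to galactose assay medium (pH 6.0, -URA) at 1:100 dilution. Compound 23 nl per well; the matching strain lacking NS1 serves as control.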
# SARS PLP yeast – qHTS of Yeast-based Assay for SARS-CoV PLP | Potency, µM (top dose mostly 32.9 µM), for the others: top-dose activity, positive = growth rescue | 330,000 compounds, 0.19% hits | S. cerevisiae expressing SARS-CoV PLpro, growth rescue; control for the full effect not named in the record; active means well fitted rising curve with a large enough effect; inconclusive means small, poorly fitted or top-dose-only effect; inactive means no such curve, though single readings can be large or run the other way; note: 0% is about no effect; nearly all actives have a fitted effect of over 55% in size; growth read by luminescence after 48 h
# MARV entry inh – qHTS for inhibitors of binding or entry into cells for Marburg Virus; Marburg virus pseudotyped entry inhibition, cell reporter; control for the full effect not named in the record; about a third of the inactives were read at about 46 µM; Potency, µM (series often up to 37.8 µM), for the others: at the top dose activity change, negative = inhibition, most hits filed as inhibitors; 300,000 compounds, 1.8% hits; AID 540276, 2011; active = well fitted inhibition curve with a large enough effect; inconclusive = small, poorly fitted or top-dose-only effect, or effect the other way; inactive = flat fitted curve, though single readings scatter; tested in HEK293 cells; about a fifth of its hits are not listed in these tables; note: % is set by controls: 0 for no effect and ±100 for the full control effect; luciferase read-out
# Cruzain inh noDet – qHTS Assay for Promiscuous and Specific Inhibitors of Cruzain (without detergent); 200,000 compounds, 2.3% hits; Cruzipain (Trypanosoma cruzi), P25779; AID 1476, 2009; purified cruzain, Z-FR-AMC fluorescence, no detergent; Potency, µM, for inactives: max response, negative = inhibition, usual class: inhibitors;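 note: plate controls were enzyme without inhibitor for no effect and buffer without enzyme for full effect; nearly all actives have a fitted effect of over 40% in size; top concentration of the series not given in the record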
#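 Purified cruzain at 1.5 nM, pre-incubated 15 min with compound at room temperature in 100 mM sodium acetate pH 5.5, 5 mM DTT, 0.00005% Triton X-100. Reaction started with 2 uM Z-FR-AMC; AMC fluorescence increase over 60 s gives rate.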
# StopGo reporter – High Throughput Screening for Foot and Mouth Disease Virus Antivirals; human cells with a luciferase reporter of 2A StopGo recoding; control for the full effect not named in the record; AID 1159524, 2015; Potency, µM (highest dose often 57.9 µM), without a hit: at the top dose signal change, negative = less light; 410,000 compounds, 1.2% hits; active = well fitted falling curve with a large enough effect; inconclusive = small, poorly fitted or top-dose-only effect; inactive = no such curve, though single readings can be large or run the other way; tested in HEK293T cells; note: % is set by controls: 0 for no effect and ±100 for the full control effect; nearly all actives have a fitted effect of over 45% in size; luciferase light after 4 h
# RE007 growth inh – qHTS Assay for Inhibitors of the HIV-1 protein Vpr; Potency, µM (titrated, usually from 92.2 µM), for inactives: top-dose activity change, negative = less growth; 360,000 compounds, 0.21% hits; S. pombe RE007 Vpr strain, BacTiter-Glo ATP luminescence, 24 h; control for the full effect not named in the record; active = well fitted falling curve with a large enough effect; inconclusive = small, poorly fitted or top-dose-only effect; inactive = no such curve, though single readings can be large or run the other way;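 note: % is set by controls: 0 for no effect and ±100 for the full control effect; nearly all actives have a fitted effect of over 50% in size; the assay follows cell death caused by Vpr and the record does not say whether a fall means rescue or toxicity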
#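 Fission yeast RE007 carrying one integrated HIV-1 vpr copy, seeded at OD 0.01 in PMG+AL medium with 23 nL pinned compound. Grown 24 h at 30 degrees; viability read by BacTiter-Glo luminescence after 5 min.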
# LASV entry inh – qHTS for Inhibitors of binding or entry into cells for Lassa Virus | Lassa virus pseudotype entry inhibition, cell reporter; control for the full effect not named in the record | Potency, µM (highest dose often 37.9 µM), for the others: top-dose activity change, negative = inhibition, most hits filed as inhibitors | 300,000 compounds, 1.2% hits; active means well fitted inhibition curve with a large enough effect; inconclusive means small, poorly fitted or top-dose-only effect, or effect the other way; inactive means flat fitted curve, though single readings scatter; tested in HEK293 cells; note: % is set by controls: 0 for no effect and ±100 for the full control effect; nearly all actives have a fitted effect of over 50% in size; luciferase read-out
# Active calls of the source: *; ? = inconclusive; nt = not tested or not shown; & = joins results of further samples; [ ] = dose if it differs, or a comment. Unless noted, calls come from the whole dose curve; as a rule, active = well fitted curve in the direction sought with a large enough effect; inconclusive = small, poorly fitted or top-dose-only effect, or another doubt; inactive = no such curve, though single readings can be large; an effect the other way counts as inactive or inconclusive. Potency is the fitted concentration of half-maximal effect.
SMILES,Cruzain Triton,NS1 inh,SARS PLP yeast,MARV entry inh,Cruzain inh noDet,StopGo reporter,RE007 growth inh,LASV entry inh
CCOc1ccc(-n2c(SCC(N)=O)nc3c(c2=O)SCC3)cc1,-7.8%,7%,2%,5%,-17%,3%,-2%,-1%
CC(=O)N1c2ccc(S(=O)(=O)NCC3CCC(C(=O)NC(C)(C)C)CC3)cc2CC1C (stereo not given),0.9%,nt,nt,nt,-20%,-3%,nt,0%[46.1 µM]
O=C(Nc1nnc(-c2ccccc2)s1)c1ccc(Cl)c(S(=O)(=O)N2CCOCC2)c1,-3.6%,7%,7%,nt,7%,nt,nt,nt
COC(=O)c1cc(S(=O)(=O)N2c3ccccc3CC2C)cn1C (stereo not given),nt,-2%,1%,-13%[46.1 µM],nt,5%,-29%,-20%[46.1 µM]
O=C(c1ccc2c(c1)OCO2)N(c1ccc(F)cc1)C1C=CS(=O)(=O)C1 (stereo not given),6.2%,-5%,0%,4%,0%,nt,14%,-7%
CCCCC(CC)CNC(=O)C1C2C=CC(C2)C1C(=O)O (stereo not given),0.7%,-8%,-9%,15%,10%,5%,10%,2%
O=C1c2ccccc2C(=O)N1CCCCSc1nnnn1-c1ccccc1,-1.3%,-56%,-2%,11%,5%,-27%,0%,?
COC(=O)c1[nH]c2ccccc2c1NC(=O)CN1CCN(c2cccc(Cl)c2)CC1,0.0%,-51%,1%,?,6%,14µM*,0%,-5%
Cc1ccccc1OCC(=O)N(Cc1ccc(N(C)C)cc1)C1CCS(=O)(=O)C1 (stereo not given),0.6%,-9%,1%,0%,6%,4%,-1%,-11%
Clc1ccc(-c2nnc(COc3ncnc4ccccc34)o2)cc1,nt,nt,-1%,?,nt,21%,11%,?
O=C(CN1CCN(Cc2ccccc2)CC1)N/N=C/c1ccco1,nt,7%,0%,nt,nt,-19%,-13%,nt
Cc1cc2ccccn2c1C(=O)c1ccc(N/N=C/c2ccc(C(=O)O)cc2)c([N+](=O)[O-])c1,nt,-3%,-1%,nt,nt,?,0%,nt
O=S1(=O)CC(NCc2ccccc2)C(Nc2ccc(Cl)cc2)C1 (stereo not given),1.9%,-11%,-8%,-4%,2%,-29%,6%,-3%
Cc1ccc(S(=O)(=O)N2CCOCC2)cc1NC(=O)COC(=O)CNC(=O)c1ccc(C(C)(C)C)cc1,-2.3%,-6%,9%,-3%[46.1 µM],?,22%,-7%,19%
CCOc1ccccc1OCCC(=O)OCC(=O)Nc1c(C)nn(-c2ccccc2)c1C,nt,nt,-1%,-10%,nt,-6%,-10%,-6%[46.1 µM]
COc1cc(NC(=O)CSc2nnnn2Cc2ccccc2)cc(OC)c1,nt,6%,1%,-3%,nt,-23%,3%,-1%
CC(OC(=O)Cc1c[nH]c2ccccc12)C(=O)Nc1ccccc1[N+](=O)[O-] (stereo not given),nt,nt,-1%,-4%[46.1 µM],nt,-21%,-13%,-19%
O=C(Cn1cnc2c(nnn2Cc2ccc(F)cc2)c1=O)NCc1ccc(F)cc1,nt,6%,0%,?,nt,5%,3%,?
Cc1cnc(NC(=O)COc2ccc3c(c2)CCC3)s1,nt,-10%,1%,nt,nt,7%,-11%,nt
C/C(N)=C(/C#N)C(=O)CSc1nnc(-c2ccc3c(c2)OCO3)o1,4.8%,-2%,7%,?,8%,nt,-9%,?
C#CCNC(=O)/C=C/c1ccc(OC)cc1,-1.1%,22%,-3%,28%,6%,34%[activator],-17%,6%
O=C(NCCCN1CCCC1=O)c1cccc(NS(=O)(=O)c2ccc(Br)cc2)c1,nt,nt,0%,?,nt,-24%,0%,-5%
CC(=O)c1ccc(N2CCN(CC(O)COCc3ccco3)CC2)cc1 (stereo not given),nt,3%,0%,nt,nt,-3%,-8%,nt
Cn1c(=O)c2c(ncn2CCN(CCO)Cc2ccccc2)n(C)c1=O,2.4%,10%,2%,-4%,0%,5%,-2%,-8%
CCOc1ccc(NC(=O)CCNS(=O)(=O)c2ccc3c(c2)c(=O)n(C)c(=O)n3C)cc1,1.3%,11%,1%,5%&-11%,4%,24%,4%,-11%[14.3 µM]
CN(CC(=O)Nc1ccc(Cl)c(C(F)(F)F)c1)C(=O)c1cc(=O)[nH]c2ccccc12,nt,nt,-4%,-2%,nt,?,2%,3%
CCOc1ccc(NC(=O)NCc2cccn2Cc2ccccc2)cc1,-1.3%,nt,nt,nt,-2%,-15%,nt,-17%[46.1 µM]
COc1ccc(NC(=O)c2cccs2)cn1,nt,-49%,-2%,7%[46.1 µM],nt,16%,-9%,?
Cc1ccc(NCc2nnc(SCCN3CCCCC3)n2CC2CCCO2)c(C)c1 (stereo not given),1.3%,-3%,3%,nt,-3%,19%,4%,9%
COc1cc(C(=O)Nc2nc3ccccc3s2)ccc1OCc1c(C)noc1C,-5.5%,-3%,-2%,?,0%,?,3%,?
NS(=O)(=O)c1ccc2c(c1)C1C=CCC1C(C1CC=CCC1)N2 (stereo not given),-17%,10%,1%,?,?,-21%,5%,-1%
CCOC(=O)c1ccc(N2C(=O)c3n[nH]c(-c4cccs4)c3C2c2ccc(Cl)cc2Cl)cc1 (stereo not given),-1.2%,nt,nt,?,20µM*,?,nt,?
Cc1ccc(NC(=S)Nn2cnnc2)cc1,nt,3%,1%,nt,nt,-9%,-21%,nt
CCCCN1C2=C(C(=O)CC(C)(C)C2)C(c2ccccc2)C2=C1c1ccccc1C2=O (stereo not given),-5.2%,-4%,-2%[6.58 µM],?,-1%,-2%,2%,?
CCN1C(=O)/C(=C2\SC(=S)N(CCCOC)C2=O)c2ccccc21,9.2%,-3%,-3%,4%,-1%,-8%,-15%,-1%
COc1ccc2c(-c3ccccc3)cc(N3CCOCC3)nc2c1,-0.1%,-49%,-2%,?,14%,?,14%,?
COc1ccc(CCN(Cc2cccs2)S(=O)(=O)c2ccc(-n3cnnn3)c(OC)c2)cc1OC,3.8%,4%,-10%,3%,?,21%,1%,-21%[14.3 µM]
C/C(=N\NC(=O)C1CC1)c1cccs1,-3.5%,12%,18%,17%,0%,26%,6%,-3%
CCn1ccnc1CNC(=O)C1CCC(=O)N(Cc2cccc(C(F)(F)F)c2)C1 (stereo not given),nt,1%,-1%,nt,nt,15%,-3%,nt
O=C1CC(c2ccccc2Cl)CC(O)=C1C=NCCCO (stereo not given),nt,8%,-1%,nt,nt,-10%,2%,nt

# An excerpt of these results, with each value named:
COc1cc(C(=O)Nc2nc3ccccc3s2)ccc1OCc1c(C)noc1C
- Cruzain Triton = -5.5%
- NS1 inh = -3%
- SARS PLP yeast = -2%
- MARV entry inh = ?
- Cruzain inh noDet = 0%
- StopGo reporter = ?
- RE007 growth inh = 3%
- LASV entry inh = ?
NS(=O)(=O)c1ccc2c(c1)C1C=CCC1C(C1CC=CCC1)N2 (stereo not given)
- Cruzain Triton = -17%
- NS1 inh = 10%
- SARS PLP yeast = 1%
- MARV entry inh = ?
- Cruzain inh noDet = ?
- StopGo reporter = -21%
- RE007 growth inh = 5%
- LASV entry inh = -1%

# Next part
SMILES,Cruzain Triton,NS1 inh,SARS PLP yeast,MARV entry inh,Cruzain inh noDet,StopGo reporter,RE007 growth inh,LASV entry inh
O=C(N/N=C/c1cc2ccccc2nc1Cl)[C@H]1C[C@@H]1c1ccccc1,-8.1%,14%,4%,?,?,-20%,4%,0.37µM*
CC(CCc1ccccc1)NC(=O)CCNS(=O)(=O)c1ccccc1 (stereo not given),nt,nt,2%,?,nt,-16%,5%,-11%
CCOC(=O)N1CCN(S(=O)(=O)c2ccc(OC)c(OC)c2)CC1,-2.7%,0%,0%,10%,2%,-17%,-2%,18%
Cc1cc(C(=O)O)sc1C,-2.8%,?,?,-3%,-16%,-21%,-11%,-8%
Cc1snc2sc(C(=O)c3ccc(Br)cc3)c(N)c12,20µM*,1%,-4%,30%,16µM*,-3%,-5%,?
COC(=O)c1c[nH]c(=O)c2ccccc12,nt,4%,2%,-5%[46.1 µM],nt,-14%,-14%,7%
COc1ccc(NC(=O)CN2CCN(CC(=O)Nc3ccccc3F)CC2)cc1OC,0.6%&-0.2%,2%,-12%,5%&5%,0%&-6%,-16%&0%,13%,-3%
Cn1cnc(S(=O)(=O)N2CCN(c3ccc(F)cc3)CC2)c1,nt,0%,0%,nt,nt,-21%,10%,nt
O=C(NCc1ccc(-c2nc3ccccc3s2)cc1)c1ccc(Br)o1,1.3%,12%,11%,?,?,13%,41%,?
Cc1nc(-c2cccc(NC(=O)COc3ccc(Cl)cc3)c2)cs1,nt,-34%,-3%,13µM*,nt,?,-23%,?
O=C(/C=C/c1cccc([N+](=O)[O-])c1)OCC(=O)c1ccccc1,nt,-1%,0%,nt,nt,0%,-15%,nt
Cc1ccc(NC(=O)c2cc3c(Cl)nc4ccc(C)cc4c3s2)c(Cl)c1,0.4%,nt,nt,3%[46.1 µM],?,-8%,nt,19%[46.1 µM]
C#CCOc1c(Cl)cc(/C=C2/C(=O)ON=C2C)cc1OC,nt,4%,0%,13%,nt,-3%,-16%,0%

# Looked up above:
# Entry for O=C(/C=C/c1cccc([N+](=O)[O-])c1)OCC(=O)c1ccccc1 under SARS PLP yeast: 0%
# Entry for Cc1nc(-c2cccc(NC(=O)COc3ccc(Cl)cc3)c2)cs1 under MARV entry inh: 13µM*
